From PubChem
Mtb bLac sens: beta-lactam sensitization of Mtb H37Rv. M. tuberculosis H37Rv growth with meropenem, percent inhibition; hits of this screen are not shown here. inhibition, % at 25 µM. hit rate 0.27% among 330,000;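 active = about 74% or more and at least 40 points above the plate without the antibiotic, then above 30% in a dose series; inconclusive = first-round hits that could not be retested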;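 note: growth measured after seven days incubation then overnight dye step; 0% = bacteria only wells and 100% = bacteria with antibiotic; twin plates without the antibiotic show which effects depend on it; some results filed as inactive read as strong as hits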
RecA intein inh: inhibitors of M. tuberculosis RecA intein splicing; P9WHJ3; cell-free RecA intein splicing, fluorescence; inhibition, %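 (about 9 µM by stock and volumes)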; hit rate 0.75% among 290,000; in the data active = inhibition above about 30%; inconclusive = no clear call, values can overlap the other calls;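 note: 0% = vehicle wells and 100% = reference inhibitor control wells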
Target sequence (P9WHJ3 whole entry, looked up): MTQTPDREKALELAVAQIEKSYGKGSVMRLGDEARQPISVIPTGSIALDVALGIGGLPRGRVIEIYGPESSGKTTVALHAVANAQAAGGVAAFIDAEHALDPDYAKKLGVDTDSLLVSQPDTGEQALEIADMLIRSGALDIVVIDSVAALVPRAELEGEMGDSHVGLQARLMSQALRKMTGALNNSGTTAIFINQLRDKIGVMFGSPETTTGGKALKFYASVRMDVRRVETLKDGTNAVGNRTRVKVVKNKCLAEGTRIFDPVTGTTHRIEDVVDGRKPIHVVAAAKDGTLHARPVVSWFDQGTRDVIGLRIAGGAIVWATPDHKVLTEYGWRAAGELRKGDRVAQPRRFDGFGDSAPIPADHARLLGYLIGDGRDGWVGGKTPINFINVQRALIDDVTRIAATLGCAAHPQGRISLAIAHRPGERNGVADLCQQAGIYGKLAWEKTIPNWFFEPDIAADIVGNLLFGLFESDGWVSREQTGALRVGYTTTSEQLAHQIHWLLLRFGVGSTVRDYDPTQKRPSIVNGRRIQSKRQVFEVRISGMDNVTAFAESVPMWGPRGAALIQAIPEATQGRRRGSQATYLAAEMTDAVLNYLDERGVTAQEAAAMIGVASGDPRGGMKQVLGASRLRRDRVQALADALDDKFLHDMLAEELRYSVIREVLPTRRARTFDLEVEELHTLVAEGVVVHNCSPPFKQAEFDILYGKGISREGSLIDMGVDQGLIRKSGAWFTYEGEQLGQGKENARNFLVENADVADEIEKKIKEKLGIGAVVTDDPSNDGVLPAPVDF
Mtb growth: M. tuberculosis H37Rv growth inhibitors, H37Rv strain (AID 1626) | hit rate 0.95% among 220,000 | one-dose inhibition, % at 10 µM; IC50 in µM for titrated hits | M. tuberculosis H37Rv growth inhibition; higher % means a stronger effect;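 active = confirmed in a dose series; inconclusive = inhibition above 80% but not taken into the dose series; inactive = below 80% or under 30% at every dose of the series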;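 note: bacteria incubated seven days before Alamar blue readout; 0% = bacteria only wells and 100% = bacteria with antibiotic wells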
YopH inh: blocks Yersinia enterocolitica YopH tyrosine phosphatase; fluorescence Ex485/Em525; inhibition, %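 (about 10 µM by stock and volumes)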; hit rate 0.16% among 140,000;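 active = inhibition of 50% or more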;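 note: controls were vehicle for no effect and minimum signal wells for full effect; inactives centre near -20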
Arbovirus anti: antivirals against arbovirus infection; inhibition, % at 10 µM; AID 1251; arbovirus infection cell-based antiviral screen; hit rate 0.37% among 200,000;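 active = inhibition from about 30%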;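 note: bluetongue infection of BSR cells; cell survival read as ATP light after 72 h; 0% = infected wells without compound and 100% = uninfected wells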
Arbovirus anti repeat: second read-out of Arbovirus anti, no call of its own (marks repeat the call); inhibition, %; measured here: 10K subset replicate screen; many hits read low in the repeat;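 first of two repeat runs on a subset; 0% = infected and 100% = uninfected wells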
* = called active by the depositor; ? = inconclusive; · = not tested or not shown; & = joins results of further samples.

SMILES | Mtb bLac sens | RecA intein inh | Mtb growth | YopH inh | Arbovirus anti | others
COc1ccc(-c2nnc(COc3ccc(Br)cc3C)o2)cc1 | 5 | 2.7 | · | · | ·
O=S(=O)(Cc1ccc(Cl)cc1)C1CCCCC1O (centres undefined) | -2 | -0.5 | 7% | · | ·
CC(=O)Nc1ccc(S(=O)(=O)N(C)CC(=O)Nc2ccccc2N2CCCC2)cc1 | -6 | -1.1 | · | · | ·
O=C(COC(=O)CC1CC2CCC1C2)Nc1c(F)cccc1F (centres undefined) | 5 | 2.7 | -6% | · | 10
CC(=O)c1ccc(NC(=S)N2CCN(c3ccccn3)CC2)cc1 | 0 | -1.6 | · | · | ·
COc1ccc(/C=N/NC(=O)CCc2ccccc2)cc1O | -2 | 0.1 | -8% | -41 | 2
O=C(NC1CCCc2ccccc21)C12CC3CC(CC(O)(C3)C1)C2 (centres undefined) | 1 | -1.1 | -9% | · | 21
O=C(NCCO)c1cc2c(s1)CCC2 | -10 | -1.9 | 1% | 0 | 10
O=C(Nc1ccc(F)cc1)c1ccc(NC(=O)C2CCCO2)cc1 (centres undefined) | 6 | 1.6 | · | · | ·
CCCCCCN1C=CC=C/C1=C\C=C(C#N)C#N | 19 | · | 10% | · | ·
CCN1CCN(c2ccc(NC(=O)c3ccc4c(c3)[nH]c(=O)n4Cc3ccc(F)cc3)cc2)CC1 | -4 | 0.4 | 4% | -11 | -15
O=[N+]([O-])c1ccc(N/N=C/c2ccccc2)cc1 | 85 | -10.0 | -5% | · | ·
COc1ccc(C)cc1S(=O)(=O)N1CCCCCC1 | -1 | 0.5 | -8% | · | ·
COc1ccccc1C(=O)Nc1ccccc1C(=O)NC1CCCCC1 | -11 | 2.0 | · | · | ·
Cc1cccc2cc(CN(Cc3ccccc3)C(=S)NCCCN(C)C)c(=O)[nH]c12 | -6 | 0.9 | 0% | · | -22
Clc1ccc(CNc2ncccn2)cc1 | 8 | -1.3 | · | · | ·
COc1cc(C(=O)Nc2ccc(Br)cc2C(=O)c2cc(OC)c(OC)c(OC)c2)cc(OC)c1OC | -5 | 4.8 | -4% | -5 | -2
Cn1c(N)c(C(=O)COC(=O)C2(c3ccccc3F)CCCC2)c(=O)n(C)c1=O | -4 | 2.2 | 5% | -43 | 1
CN(/N=C/c1cccnc1)c1cnc2ccccc2n1 | 21 | -4.2 | -8% | · | -11
COCCn1c(C)cc(C(=O)COc2ccc(C)nc2[N+](=O)[O-])c1C | 0 | -3.0 | -8% | · | -11
N#Cc1cc2c(=O)n3ccccc3nc2n(-c2ccccc2Cl)c1=O | -2 | -419 | 1% | · | -5
Cc1c(CCOC(=O)C23CC4(C)CC(C)(CC(C)(C4)C2)C3)sc[n+]1CC(=O)c1ccccc1 | 2 | 2.8 | 12% | · | -22
O=C(/C(=C/O)N=Nc1ccccc1Cl)c1ccccc1 | 6 | 3.7 | 1% | · | 1
COc1ccc(C(=O)NC2CC(C)(C)Cc3c2cnn3-c2ccccc2C)o1 (centres undefined) | 3 | 4.0 | · | · | ·
CCCc1cc(=O)n2[nH]c(NCc3ccc(OC)cc3)nc2n1 | 15 | · | -12% | · | -1
CCCCOc1ccc(-c2c(C#N)c(N)nc(SCC(N)=O)c2C#N)cc1 | 45 | -0.9 | -5% | -20 | -29
Cc1ccccc1C(=O)Nc1nnc(CC(=O)N/N=C/c2ccco2)s1 | -5 | -15 | -3% | · | ·
CCSc1nnc2nc3[nH]c4c(C)cccc4c3nn12 | -2 | 0.4 | -1% | · | 4
O=C(c1ccc(Cl)cc1)N1N=CCC1(O)c1ccc(Cl)cc1 (centres undefined) | 4 | 2.0 | · | · | ·
O=C(Nc1ncc(Cc2cccc(Cl)c2Cl)s1)c1ccc([N+](=O)[O-])cc1 | -3 | -0.6 | 8% | 2 | -13
CC(C)C(C(=O)NC1CCCC1)N(CC1CCCO1)C(=O)CNS(=O)(=O)c1ccccc1 (centres undefined) | -7 | 21 | · | · | ·
COc1ccc(C(=O)Nc2cccnc2Sc2ccc(Cl)cc2)cc1 | -4 | -2.1 | -4% | · | ·
CC(C)c1ccc(N=C2N=C(N)c3ccccc32)cc1 | 70 | 1.5 | -4% | · | ·
Cc1[nH]nc(-c2ccc(OCc3cnn(-c4ccccc4)c3)c(C)c2O)c1Oc1ccccc1 | -6 | 4.2 | -1% | -15 | -20
COc1ccc(OC)c(NC(=S)N2CCN(c3ccccn3)CC2)c1 | 5 | 1.4 | -8% | -26 | -5
COc1ccc(CNC(=O)/C=C/C(=O)O)cc1 | -6 | 3.0 | -6% | · | ·
Cc1cccc(NS(=O)(=O)c2cc(C(=O)N3CCOCC3)ccc2Cl)c1 | -2 | 0.2 | 6% | · | 1
COc1ccc(C(=O)Nc2cc(OC)cc3cccnc23)cc1 | 28 | 3.4 | · | · | ·
Cc1cc(NC(=O)CCSc2nc(-c3ccco3)cc(C(F)(F)F)n2)n(-c2ccccc2)n1 | -20 | · | 3% | -26 | 1
COc1ccccc1S(=O)(=O)n1cc(Cc2ccccc2)c(N)n1 | -5 | -0.6 | -1% | -3 | 13
O=C1c2ccccc2NC(c2cccc(F)c2)N1Cc1ccccc1 (centres undefined) | 7 | 4.0 | · | · | ·
COC(=O)c1ccc(OC)cc1OCC(=O)N1CCN(c2ccc(F)cc2)CC1 | -7 | 3.4 | -9% | -24 | 5
CCOC(=O)c1ccc(CNC(=O)CSc2nnnn2-c2ccc(Cl)cc2)o1 | 2 | 0.2 | · | -44 | 2
CN(C)C(=O)C(CCN1CCC(O)(c2ccc(Cl)cc2)CC1)(c1ccccc1)c1ccccc1 | 9 | 2.8 | 8% | -16 | -43
COc1ccc2nc(/N=C/c3c(C)[nH]n(-c4ccc(C)cc4C)c3=O)sc2c1 | ? | 5.5 | 6% | -20 | 5
CCCC(=O)Nc1ccc(C(=O)NNC(=S)NC(=O)c2ccc(Br)o2)cc1 | 0 | -0.2 | ? | · | -10
CCOC(=O)N1CCC(NC(=O)c2ccc3c(c2)N(C)CCS3)CC1 | -6 | · | 10% | -2 | -5
Cc1ccc(SC(C)C(=O)N2CCC(C(N)=O)CC2)cc1 (centres undefined) | -6 | -2.9 | -5% | · | 0
O=C(Nc1ccc2c(c1)OCO2)c1cccs1 | 1 | -0.6 | 0% | -16 | -8
Cc1nc2ccc([N+](=O)[O-])cc2c(=O)n1Cc1ccc([N+](=O)[O-])cc1 | -8 | -1.8 | · | · | ·
CCCCN(C(=O)CSc1nnnn1-c1ccccc1OC)C1CCS(=O)(=O)C1 (centres undefined) | -11 | -2.5 | · | · | ·
O=C(c1ccc(CS(=O)(=O)c2ccc(Br)cc2)o1)N1CCCCCC1 | 5 | · | -1% | -22 | 3 | Arbovirus anti repeat=-2
Cc1ccc(CN2CCNC(=O)C2CC(=O)NCCCn2cccn2)o1 (centres undefined) | -1 | 1.5 | -2% | · | -3
Oc1oc(-c2ccccc2)nc1/C=N/c1nccs1 | 73 | -0.6 | -8% | -45 | -9
CC1(C)Oc2ccc3ccc(=O)oc3c2/C(=C/NCCN/C=C2\C(=O)C(C)(C)Oc3ccc4ccc(=O)oc4c32)C1=O | 0 | -1.2 | · | -33 | 1
CCC1CCCCN1CCCNC(=O)c1ccc2c(c1)N(Cc1ccc(F)cc1)C(=O)c1ccccc1S2=O (centres undefined) | 3 | 1.5 | · | · | ·
COc1ccc(N(C(=O)CNC(=O)c2ccco2)C(C(=O)NC2CCCC2)c2cccnc2)cc1 (centres undefined) | 3 | 1.2 | · | · | ·
O=c1c(-c2ccccc2)coc2cc(O)ccc12 | -3 | · | 9% | · | -4 | Arbovirus anti repeat=-2
COc1ccc(CC(C)N2CCN(c3cccc(C(F)(F)F)c3)CC2)cc1OC (centres undefined) | 2 | 2.7 | -5% | -17 | 6
S=C(NCCCNC(=S)Nc1ccccc1)Nc1ccccc1 | -11 | 7.5 | -1% | -3 | 5

Sorted by count of non-hydrogen atoms (high to low): some entries from above
SMILES | Mtb bLac sens | RecA intein inh | Mtb growth | YopH inh | Arbovirus anti | others
CC1(C)Oc2ccc3ccc(=O)oc3c2/C(=C/NCCN/C=C2\C(=O)C(C)(C)Oc3ccc4ccc(=O)oc4c32)C1=O | 0 | -1.2 | · | -33 | 1
CCC1CCCCN1CCCNC(=O)c1ccc2c(c1)N(Cc1ccc(F)cc1)C(=O)c1ccccc1S2=O (centres undefined) | 3 | 1.5 | · | · | ·
COc1ccc(N(C(=O)CNC(=O)c2ccco2)C(C(=O)NC2CCCC2)c2cccnc2)cc1 (centres undefined) | 3 | 1.2 | · | · | ·
CCCCN(C(=O)CSc1nnnn1-c1ccccc1OC)C1CCS(=O)(=O)C1 (centres undefined) | -11 | -2.5 | · | · | ·
COc1ccc2nc(/N=C/c3c(C)[nH]n(-c4ccc(C)cc4C)c3=O)sc2c1 | ? | 5.5 | 6% | -20 | 5
CCCC(=O)Nc1ccc(C(=O)NNC(=S)NC(=O)c2ccc(Br)o2)cc1 | 0 | -0.2 | ? | · | -10
Cc1ccc(CN2CCNC(=O)C2CC(=O)NCCCn2cccn2)o1 (centres undefined) | -1 | 1.5 | -2% | · | -3
CCOC(=O)N1CCC(NC(=O)c2ccc3c(c2)N(C)CCS3)CC1 | -6 | · | 10% | -2 | -5
S=C(NCCCNC(=S)Nc1ccccc1)Nc1ccccc1 | -11 | 7.5 | -1% | -3 | 5
Cc1ccc(SC(C)C(=O)N2CCC(C(N)=O)CC2)cc1 (centres undefined) | -6 | -2.9 | -5% | · | 0
Oc1oc(-c2ccccc2)nc1/C=N/c1nccs1 | 73 | -0.6 | -8% | -45 | -9
O=c1c(-c2ccccc2)coc2cc(O)ccc12 | -3 | · | 9% | · | -4 | Arbovirus anti repeat=-2
O=C(Nc1ccc2c(c1)OCO2)c1cccs1 | 1 | -0.6 | 0% | -16 | -8

Additional results follow:
SMILES | Mtb bLac sens | RecA intein inh | Mtb growth | YopH inh | Arbovirus anti | others
Cc1cccc(Cl)c1OCCCCn1ccnc1 | 2 | 0.4 | 3% | 2 | 3
COC(=O)CCC(=O)N1CCCC(CO)(Cc2ccccc2F)C1 (centres undefined) | 1 | -1.3 | · | · | ·
CCN(CC)C(=O)CSc1nc2sc(C)c(C)c2c(=O)[nH]1 | -6 | 0.8 | -5% | 15 | -10
CCOC(=O)CC1COCCN1C(=O)c1cc(COc2ccc(F)cc2Cl)on1 (centres undefined) | 4 | 6.9 | · | · | ·
CCc1nc(Cl)c(C#N)c2c1CSC(C)(C)C2 | 10 | 3.6 | 2% | -22 | -6
Cc1nnc(SCC(=O)N2CCC(Cc3ccccc3)CC2)n(N)c1=O | -8 | 1.2 | 7% | -18 | 8
Nc1nn(-c2cccc(F)n2)cc1-c1ccccc1 | · | 4.5 | -5% | · | -5
O=C(c1ccc(OCCN2CCCCC2)cc1)c1c(-c2ccc(O)cc2)sc2cc(O)ccc12 | 0&5 | 7.9 | 6% | · | ·
O=C(COC(=O)c1cn(-c2ccccc2)nc1-c1ccccc1)Nc1ncc(Cl)cc1Cl | 1 | 0.9 | -17% | · | ·
O=C(/C=C/c1ccc(Br)o1)NC(c1ccccc1)c1ccccc1 | -1 | 11 | 4% | -12 | 3
CCc1n[nH]c(=S)n1/N=C/c1c(C)nn(-c2ccccc2)c1Cl | -9 | 7.7 | 7% | · | -4
Cc1[nH]c(=O)[nH]c(=O)c1S(=O)(=O)NCCOC12CC3CC(CC(C3)C1)C2 | -18 | 0.8 | 2% | -35 | 6
CC(=O)Nc1ccc2c(c1)ncn2-c1ccc(C)cc1 | 4 | -1.3 | -4% | · | 1
COc1ccc(N2CCN(C(=S)Nc3ccc(F)cc3)CC2)cc1 | 5 | -1.8 | · | · | ·
CCCCNC(=O)COC(=O)c1ccc(Cl)c(S(N)(=O)=O)c1 | -5 | · | 0% | -19 | 2
O=C(Nc1cccc(Cl)c1)c1ccc(S(=O)(=O)NCC2CCCO2)cc1 (centres undefined) | 2 | 1.3 | · | · | ·
COc1ccc(CCN2CC(C(=O)Nc3cc(F)ccc3F)CC2=O)cc1OC (centres undefined) | -6 | 1.0 | · | · | ·
Clc1cccc(Cl)c1Cn1ccc(C2CC2)n1 | -3 | -0.9 | 4% | · | 8
Cc1csc(SCC(=O)Nc2ccccc2[N+](=O)[O-])n1 | -2 | -0.2 | -1% | · | -5
O=C(NCCn1c(-c2ccncc2)nc2ccccc21)[C@H]1CCCN1c1nc(CN2CCCCC2)cs1 | -9 | -0.6 | · | · | ·
COc1ccc(Cn2c(O)c(C=Nc3ccc(O)cc3)c3ccccc3c2=O)cc1 | 50 | -8.6 | 41% | 13 | -29
Cc1cc(C)cc(OCC(=O)Nc2ccc3c4c(cccc24)CC3)c1 | 36 | -1.7 | -1% | -45 | -2
O=c1c2cc(Cl)cc(Cl)c2nc2n1CCC2 | -1 | -1.7 | -1% | · | 5

A portion of the library; rates above refer to the full screens.
